Bioassay records (PubChem)
Sa ugtP lethal = growth inhibition of ugtP-null S. aureus, primary screen, RN4220 ugtP deletion, OD600. growth inhibition, % (no concentration beside the values). 0.54% of 330,000 active. 16 h; some inactives read as strong as hits;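 active = z-score under -3 and OD600 up to 0.15 on both plates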;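 note: plate controls were untreated wells for no effect and antibiotic for full effect; wells of about 80 µL received 100 nL stock; the first replicate is given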
PrP UTR inh = inhibition of PrP 5' UTR reporter expression; cell-based PrP 5' UTR mRNA reporter, plate reader; inhibition, % (test concentration not listed); 0.35% of 340,000 active;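 active = every replicate at 50% or more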;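 note: 0 = median of the neutral control wells; tested in H4 reporter cells; numbers are from one replicate; inactives centre near -14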
Mtb hypoxia inh = PubChem AID 1159583 | 0.1% of 300,000 active | M. tuberculosis hypoxia-regulated fluorescent reporter, fluorescence | fluorescence inhibition, % (concentration not given with the values);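 active = 35 to 45% if threefold the growth effect, above 45% if 1.5-fold the growth effect; inactive = the rest, general growth blockers included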;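 note: wells of about 50 µL received 100 nL stock; 0% = vehicle wells and 100% = reference inhibitor wells; whole bacteria with a GFP reporter of the hypoxia response; strong numbers were not always called active; many hits fall short of the cut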
BJeLR lethal = MLPCN primary cell-based screen for lethality selective to Ras in HRASV12 cells | BJeLR (HRASV12) viability, CellTiter-Glo ATP luminescence, 48 h; reference of the scale not given here | inhibition, % (concentration not given with the values) | 0.17% of 300,000 active | AID 1554, 2009;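 active = replicate mean above 50%; inconclusive = above 50% but judged a plate artefact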;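 note: 50 nL library stock added to about 25 µL; numbers are from one replicate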
RN4220 kill = growth inhibition of S. aureus RN4220, primary screen, OD600; 16 h; inhibition, % (no concentration beside the values); 0.33% of 330,000 active; AID 1259311, 2017;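 active = z-score of -3 or lower and OD600 up to 0.18 on both plates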;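 note: plate controls were untreated cells for no effect and reference antibiotic for full effect; stock transfer was 100 nL into about 80 µL; one replicate is shown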
Bead autofluor = compound fluorescence in toxin protease inhibitor counterscreen. compound autofluorescence counterscreen, microsphere flow cytometry; hits give high values. fluorescence intensity (concentration not given with the values). 3.1% of 360,000 active. AID 624483;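 active = at least 3 SD above the mean of all compounds, about 16000 in these data; inconclusive = too few beads counted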;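 note: 100 nL of 1 mM stock went into each well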
Mtb hypoxia inh growth = recorded beside Mtb hypoxia inh, whose call it bears; growth inhibition, %; measured here: M. tuberculosis growth (absorbance);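 0% = vehicle and 100% = reference antibiotic; read after six days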
* marks the source's active call; other numbers are inactive results; ? = inconclusive; nt = not tested or not shown.

SMILES	Sa ugtP lethal	PrP UTR inh	Mtb hypoxia inh	Mtb hypoxia inh growth	BJeLR lethal	RN4220 kill	Bead autofluor
NC(=O)c1cccnc1Oc1ccc(Cl)cc1Cl	2.0	11.9	4.7	-1.2	0.0	5.2	4396
C=CCn1c(SCCC)nc(O)cc1=O	0.6	-23.7	7.0	2.2	-5.1	2.1	7909
CCc1ccc(NC(=O)CSc2nnc(Cc3cccn3C)n2-c2ccc(F)cc2)cc1	-0.7	-10.8	nt	nt	-10.5	6.0	5878
CCOC(=O)N1CCN(C(=O)Cn2c(C)cc3ccccc3c2=O)CC1	4.1	-28.9	10.0	8.1	-10.6	5.5	2656
CCCOC(=O)c1ccc(NC(=O)c2ccccc2OC)cc1	5.4	-38.9	3.1	7.3	-4.8	-1.7	2484
O=C1NC(=O)N(Cc2ccccc2Cl)C(=O)/C1=C/c1cccs1	-9.6	-24.5	-4.7	12.4	-6.2	-8.1	2497
CCOC(=O)c1cccc(NC(=S)N2CCN(c3ncc4c(=O)c(C(=O)O)cn(CC)c4n3)CC2)c1	8.8	-12.5	1.4	6.4	4.7	8.0	4487
CCCSc1nnc(CN2CCOCC2)n1C	6.1	3.2	nt	nt	6.7	-0.6	?
COC(=O)c1ccc(NC(=O)C(=O)N2CCN(C(=S)Nc3cccc(OC)c3)CC2)cc1	-2.3	0.8	6.8	7.6	0.8	6.4	2491
CCS(=O)(=O)c1ccc(O)c(NC(=O)Nc2ccc(C(C)(C)C)cc2)c1	-3.5	-28.8	-14.3	8.3	-9.2	6.6	nt
COc1ccc(C)cc1S(=O)(=O)N(CC(=O)Nc1cccc([N+](=O)[O-])c1)c1cc(C)cc(C)c1	-11.0	-12.2	-7.4	-4.3	-6.0	5.8	10565
COc1ccc(OC)c(S(=O)(=O)n2cnc3cc(C)c(C)cc32)c1	-16.1	1.7	12.5	3.8	-3.0	-1.4	2206
O=C(CNC(=O)C1CCCC1)Nc1ccccc1Br	4.9	-11.1	7.1	-2.2	nt	3.2	3871
COc1ccc(NC(=O)C(c2ccc(C)cc2)N(C)C(=O)Cc2cccs2)cc1 (configuration not stated)	27.3	-5.3	6.9	0.6	1.8	0.9	2547
Cc1ccc2cc(CCNC(=O)c3ccc4c(c3)OCO4)c(=O)[nH]c2c1	13.5	-39.8	6.8	5.2	-2.4	5.1	5645
CCOC(=O)c1ccc(-n2ccnc2)c(NC(=O)c2ccc(Cl)cc2)c1	14.0	-13.9	7.1	2.6	5.5	-5.0	2050
Cc1cc(=O)n(CCc2ccccc2)c(O)c1C#N	4.6	-9.3	15.9	3.3	-1.6	-6.1	3305
O=C(NCCN1CCOCC1)C(=O)NCC1OCCCN1S(=O)(=O)c1cc(F)ccc1F (configuration not stated)	7.4	-19.0	0.2	8.3	-1.5	0.7	5792
COc1ccc(Cc2nnc(Nc3ccc(Cl)cc3)[nH]c2=O)cc1	10.5	-30.4	1.5	-3.1	2.1	0.1	4681
Cc1cc2n(c(=O)c1C#N)CCCN2c1cccc(Cl)c1	11.4	-7.2	1.2	0.6	-0.4	3.4	13745
Cc1ccnc(NC(=O)c2ccc(N3C(=O)CCC3=O)cc2)c1	0.1	-23.9	5.0	12.2	11.6	2.2	3580
Cc1cc(C)c2oc(C(=O)N(Cc3ccccc3)c3ccccn3)cc(=O)c2c1	-1.4	-18.2	16.0	6.9	-11.2	-0.5	5318
O=C(NCC(c1ccco1)N1CCc2ccccc21)c1ccccc1F (configuration not stated)	8.1	-12.1	8.2	1.5	3.6	4.4	6290
COc1ccc(OCC(=O)Nc2ccc(S(=O)(=O)N3CCCCC3)cc2)cc1	9.3	-26.9	3.7	3.6	2.3	-0.2	4556
CC(=O)Nc1ccc(NCN2C(=O)C3C4CCC(C4)C3C2=O)cc1 (configuration not stated)	-6.7	-29.1	14.2	6.5	2.6	0.6	8881

Part of the list above, limited to BJeLR lethal and PrP UTR inh:
molecule	BJeLR lethal	PrP UTR inh
CCOC(=O)c1ccc(-n2ccnc2)c(NC(=O)c2ccc(Cl)cc2)c1	5.5	-13.9
Cc1cc(=O)n(CCc2ccccc2)c(O)c1C#N	-1.6	-9.3
O=C(NCCN1CCOCC1)C(=O)NCC1OCCCN1S(=O)(=O)c1cc(F)ccc1F (configuration not stated)	-1.5	-19.0

Filtered by structure: those above containing fluorine
SMILES	Sa ugtP lethal	PrP UTR inh	Mtb hypoxia inh	Mtb hypoxia inh growth	BJeLR lethal	RN4220 kill	Bead autofluor
CCc1ccc(NC(=O)CSc2nnc(Cc3cccn3C)n2-c2ccc(F)cc2)cc1	-0.7	-10.8	nt	nt	-10.5	6.0	5878
O=C(NCCN1CCOCC1)C(=O)NCC1OCCCN1S(=O)(=O)c1cc(F)ccc1F (configuration not stated)	7.4	-19.0	0.2	8.3	-1.5	0.7	5792
O=C(NCC(c1ccco1)N1CCc2ccccc21)c1ccccc1F (configuration not stated)	8.1	-12.1	8.2	1.5	3.6	4.4	6290

2 of these compounds in a different format.
canonical_smiles | Sa ugtP lethal | PrP UTR inh | Mtb hypoxia inh | Mtb hypoxia inh growth | BJeLR lethal | RN4220 kill | Bead autofluor
Cc1cc(=O)n(CCc2ccccc2)c(O)c1C#N | 4.6 | -9.3 | 15.9 | 3.3 | -1.6 | -6.1 | 3305
COc1ccc(Cc2nnc(Nc3ccc(Cl)cc3)[nH]c2=O)cc1 | 10.5 | -30.4 | 1.5 | -3.1 | 2.1 | 0.1 | 4681

Other compounds
SMILES	Sa ugtP lethal	PrP UTR inh	Mtb hypoxia inh	Mtb hypoxia inh growth	BJeLR lethal	RN4220 kill	Bead autofluor
COC(=O)/C(=C\C=C\c1ccccc1)NC(=O)c1ccccc1	nt	-6.7	nt	nt	-8.6	nt	3495
Cc1cc(Oc2ccc(-c3nnc(-c4ccccc4)o3)cc2[N+](=O)[O-])ccc1Cl	7.0	-47.9	0.4	-4.4	2.6	-3.4	2152
COc1ccc(CNC(=O)Cn2cc3c(n2)CCCCC3)cc1	-5.5	-6.0	nt	nt	-0.3	-1.6	6094
Cn1c(SCC(=O)NCc2ccc(F)cc2)nc2c([nH]c3ccccc32)c1=O	6.4	nt	3.5	1.4	-2.8	1.7	nt
C[C@@H]1CCC2[C@](C)(CO)[C@@H](O)CC[C@]2(C)[C@@]12CCC(CO)(CCO)O2 (some centres not stated)	2.4	2.6	3.9	11.1	-2.7	1.3	3973
Cc1nc(NC(=O)CN2CCN(c3ccccc3F)CC2)sc1C(=O)N(C)C	-1.8	-9.4	5.9	-3.0	10.9	1.2	3211
O=C(NCc1ccc(F)cc1)c1cnn2ccccc12	9.7	-92.6	1.6	4.3	-12.8	0.7	6061
O=C1NC(=O)N(c2ccccc2)C(=O)/C1=C\c1ccc([N+](=O)[O-])s1	1.5	nt	-0.5	3.5	1.1	6.1	nt
Cn1c(SCC(=O)Nc2ccc3c(c2)OCCO3)nnc1-c1ccncc1	-0.1	-19.2	9.4	-4.3	5.7	1.9	4438
COc1ccccc1C(=O)CC(=O)c1ccccc1	19.2	-24.2	13.5	5.1	-8.6	2.0	3110
O=C1C2C3C=CC(CC3)C2C(=O)N1N=Cc1ccc(O)c(O)c1 (configuration not stated)	0.2	nt	-3.3	6.6	nt	0.2	nt
Cc1cc(OCc2nn[nH]n2)c2c(C)c(CC(=O)O)c(=O)oc2c1	-5.1	-3.7	-4.9	-4.1	-11.2	-1.4	3699
CCOc1ccc(NC(=S)NN=C(C)Cc2ccc(OC)cc2)cc1	13.2	nt	10.3	5.3	nt	4.1	nt
COc1ccc(CCn2c(-c3ccc(F)cc3)nc3c(c(=O)c4ccccc4n3C)c2=O)cc1OC	7.3	nt	14.8	3.5	-3.8	4.7	6119
Cc1cc(OC(C)C(=O)NCc2ccncc2)c2c(C)cc(=O)oc2c1 (configuration not stated)	6.5	7.0	0.3	0.6	1.7	3.4	5565
CN1CCN(C(=O)C2=C[C@@H](c3ccccc3)C[C@@H](OCc3ccc(CO)cc3)O2)CC1	nt	-17.7	nt	nt	3.9	nt	3541
COc1cc(C(=O)NNC(=O)c2ccc(F)cc2)ccc1OCC(=O)N1CCOCC1	-3.0	-13.0	-6.4	-1.7	nt	-0.8	2753
CSc1nc2ccc(NC(=O)c3ccc(Cl)s3)cc2s1	10.7	-63.5	-3.7	12.2	nt	5.5	5311
CCOC(=O)c1c(C)[nH]c(C)c1S(=O)(=O)NCc1ccccc1C	-0.5	5.6	-2.1	3.4	4.7	3.9	5784
CCCCN(C(=O)c1cc(Cl)nc2ccccc12)c1c(N)n(CCCC)c(=O)[nH]c1=O	10.9	-3.5	5.3	-11.3	-1.2	3.4	4263
COc1ccc(CNC(=O)CSc2nnnn2-c2ccc(O)cc2)cc1	7.1	-5.9	4.2	-0.2	-6.6	3.1	3351
CCOC(=O)N1CCC(NC(=O)CS(=O)(=O)Cc2nc(-c3cccc(Cl)c3)oc2C)CC1	9.1	-14.3	5.5	1.5	-3.4	1.6	5991
COc1ccc(S(=O)(=O)N[C@@H](CSCc2ccccc2)C(=O)O)cc1	3.7	-19.5	-8.0	-8.3	nt	3.6	5319
Cc1ccc(CNC(=O)c2ccccc2CCc2ccccc2)cc1	7.3	-29.2	-14.8	-8.6	-3.2	2.6	12996
CCOc1cc(C=NNC(N)=O)ccc1OCC(=O)Nc1ccc(C)c(C)c1	-13.5	nt	8.7	9.0	nt	3.8	nt
Further structures follow.
SMILES	Sa ugtP lethal	PrP UTR inh	Mtb hypoxia inh	Mtb hypoxia inh growth	BJeLR lethal	RN4220 kill	Bead autofluor
COc1ccccc1C(=O)NC(=S)Nc1ccc2[nH]c(=O)[nH]c2c1	3.3	-24.5	-2.3	-0.3	-7.0	1.6	3357
Cc1cc2[nH]c(=O)c(=O)[nH]c2cc1S(=O)(=O)N1CCN(c2ccccc2F)CC1	0.9	2.1	-5.5	8.4	4.1	2.2	5766
CC1CCC(NC(=O)CN2C(=O)NC(C)(C)C2=O)CC1 (configuration not stated)	2.3	-21.7	5.4	0.0	-7.5	5.3	6522
S=C(NNc1cccc(Cl)c1)NC1CCCCC1	6.4	-26.1	20.3	5.5	-8.4	6.3	4190
CC(C)(C)c1ccc(OCCC(=O)Nc2cccc(S(=O)(=O)NC3=NCCCCC3)c2)cc1	0.7	-8.1	0.8	5.9	nt	0.1	6097
O=C1COc2ccc(C(=O)COC(=O)CCSc3ccccc3)cc2N1	15.9	-14.5	2.4	7.8	-6.9	5.7	4582
Cc1ccc(NC(=O)C2OCCc3ccccc32)cc1 (configuration not stated)	1.1	-35.3	-4.9	-7.9	-7.6	-4.3	2122
CC1=CC(=C2N=C(c3ccccc3)OC2=O)C=C(C)O1	2.7	-44.5	5.0	4.3	1.8	7.3	8556
CN(CC(=O)N1CCOCC1)S(=O)(=O)c1cc(Cl)ccc1Cl	-0.5	-16.0	-6.7	-0.3	-14.6	-4.0	3768
O=C(O)CCCC(=O)Nc1ccccc1-n1ccnc1	4.8	-21.3	8.1	1.4	-10.5	-4.2	2425
O=C(COC(=O)c1ccc(S(=O)(=O)N2CCOCC2)cc1)Nc1ccccc1OC(F)F	3.1	-21.0	-3.7	-1.3	nt	3.5	7936
O=C(NC1CC1)C1CCN(C2CCN(C(=O)/C=C/c3cccc(F)c3F)CC2)CC1	-1.2	3.8	6.7	-1.7	4.9	3.1	4564
COc1ccc(Cl)cc1NC(=O)CN(C)C(=O)CCc1nc2ccccc2c(=O)[nH]1	0.2	-18.0	4.6	6.5	nt	4.9	nt
CN1C=CC=C/C1=C1\SC(=S)N(C2CCCCC2)C1=O	-7.5	-8.8	8.2	3.9	-6.4	3.6	21024*
COCCNC(=O)C(c1ccc(Cl)cc1)N(C(=O)Cn1nnc2ccccc21)c1cccnc1 (configuration not stated)	2.2	-6.7	-3.7	-2.3	-1.4	1.2	4614
CCc1n[nH]c(=S)n1N=Cc1ccc2c(c1)OCO2	-3.6	nt	3.9	9.0	nt	5.1	nt
Cc1cc(C)nc(NS(=O)(=O)c2ccc(NC(=O)Cn3c(=O)oc4ccccc43)cc2)n1	16.2	-11.1	1.4	8.5	-4.2	6.2	5583
